Screens from PubChem.
NPYLR7 ag: mosquito NPYLR7 agonism; HEK293T NPYLR7/Galpha15, GCaMP6s calcium fluorescence; activation, % at 10 µM; 270,000 compounds, 0.15% hits; AID 1259423; in the data active means activation above about 40%;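 further: 0% = vehicle and 100% = reference agonist at the receptor; some compounds past the cut are filed as inactive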
NPYLR7 ag max-min: second read-out of NPYLR7 ag, no call of its own (marks repeat the call); activation, %; measured here: Max-Min RFU normalised activation; some inactives read as strong as hits;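 span of the calcium signal over five minutes; 0% = vehicle and 100% = native peptide agonist; compound fluorescence can raise it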
* = called active by the depositor; & = joins results of further samples.

Second line of a record – NPYLR7 ag	NPYLR7 ag max-min
> Clc1ccccc1Cc1noc(CN2CCCC2c2ccccn2)n1 (stereo not drawn)
    -2.4	-4.7
> COCCn1c(=NC(=O)C2=COCCO2)sc2cc(C)ccc21
    0.7	-0.9
> Cn1c(=O)c2c(nc3n2CCCN3c2ccc(Oc3ccccc3)cc2)n(C)c1=O
    2.5	5.7
> COc1ccc(CCC2CCCN(C(=O)CCNS(C)(=O)=O)C2)cc1 (stereo not drawn)
    7.6	4.6
> O=S1(=O)CCN2C=Nc3sc4c(c3C2=N1)CCCC4
    -0.4	-2.5
> N[C@@H](Cc1ccc(O)c(O)c1)C(=O)O
    -1.7&-1.1&-1.2	-4.7&-6.2&-29.1
> COc1ccc(OCC(=O)N=Nc2c(O)n(C)c3c(C)cc([N+](=O)[O-])cc23)cc1
    3.3	-2.8
> Cc1cc(C)n(-c2nc(C)c(C)c(=O)n2CC(=O)NCc2ccc(F)cc2)n1
    -0.3	3.9
> COc1cccc(C(=O)N2CCC3(CC2)SCCN3C(=O)c2ccccc2F)c1
    13.1	16.7
> CCc1cccc(NC(=O)N(CC(=O)N(Cc2cccn2C)CC(C)C)CC(C)C)c1
    13.6	17.9
> Cc1ccc(C2c3c(n[nH]c3C(C)(C)C)OC(=N)C2C#N)s1 (stereo not drawn)
    25.1	16.4
> CN(C)CCCN(C(=O)COc1ccc(Cl)cc1)c1nc2cc3c(cc2s1)OCCO3
    1.0	0.2
> COc1ccc(-c2noc(CN3CCCC(C(=O)c4ccccc4)C3)n2)cc1 (stereo not drawn)
    -2.5	-8.2
> CCOC(=O)c1c(C)[nH]c(C(=O)COC(=O)c2ccc(C)s2)c1C
    -3.6	-6.6
> COc1cc(OC)cc(C(=O)NCC(=O)NC(C)c2ccc3c(c2)OCCO3)c1 (stereo not drawn)
    -1.3	4.4
> OCCCn1nc(Br)nc1Br
    -23.5	-26.5
> COc1ccc(CCC(C)NC2CC(C)(C)NC(C)(C)C2)cc1 (stereo not drawn)
    33.2	15.0
> CC1CCN(Cc2nnnn2CC(=O)N2CCN(Cc3cccc(F)c3)CC2)CC1
    4.7	5.7
> C#CCn1c(=O)c2c(OC)ccnc2n(C)c1=O
    2.8	1.1
> CCN(Cc1nc(COC)no1)Cc1cc2ccc(F)cc2[nH]c1=O
    -2.6	-7.0

Sorted by length of the SMILES (low to high): some entries from above.
Second line of a record – NPYLR7 ag	NPYLR7 ag max-min
> Cc1ccc(C2c3c(n[nH]c3C(C)(C)C)OC(=N)C2C#N)s1 (stereo not drawn)
    25.1	16.4
> COc1ccc(-c2noc(CN3CCCC(C(=O)c4ccccc4)C3)n2)cc1 (stereo not drawn)
    -2.5	-8.2
> CN(C)CCCN(C(=O)COc1ccc(Cl)cc1)c1nc2cc3c(cc2s1)OCCO3
    1.0	0.2

(next part)
Second line of a record – NPYLR7 ag	NPYLR7 ag max-min
> C[C@@]1(O)CCN(C(=O)Cc2cccnc2)C[C@@H]1Cc1ccccc1
    -0.2	0.6
> CCOC(=O)c1nn(-c2ccc(C)cc2)c(=O)cc1OS(=O)(=O)c1ccc(C)cc1C
    -2.2	4.4
> c1cc2occc2c(-c2cc(NC3CCNCC3)nc3[nH]ccc23)n1
    41.7	36.8
> COc1ccc(C2CCCN2Cn2nc(-c3ccc(C)cc3)n(C)c2=S)c(OC)c1 (stereo not drawn)
    6.8	2.7
> Cc1ccc2oc(CN(Cc3ccncc3)C(=O)c3ccc(F)cc3)nc2c1
    -0.4	-8.1
> Cn1ccnc1C(NC(=O)C1CCN(S(=O)(=O)c2ccccc2)CC1)c1cccc(F)c1 (stereo not drawn)
    -3.9	-7.1
> Cc1ccccc1-n1nc(C)c(CNC(=O)c2ccccc2OC(=O)c2ccccc2O)c1C
    -8.6	-13.3
> Cc1cc(C=C(C#N)S(=O)(=O)c2ccc(Br)cc2)cc(C)c1O
    9.7	18.7
> CO[C@H]1CN(C(=O)OCc2ccccc2)[C@@H]2CC[C@@H](O)[C@H]1C2
    5.6	11.1
> CCN(CC)S(=O)(=O)c1ccc2c(c1)CCN2CC(=O)Nc1cc(C)on1
    12.1	6.3
> CCOC(=O)c1cc(-c2cccc(NC(=O)c3ccc4nonc4c3)c2)n(-c2ccccc2OC)n1
    -3.6	-5.2
> O=S(=O)(c1ccc2c(c1)nc(SCc1cc3c(cc1Cl)OCO3)n2CC1CCCO1)N1CCOCC1 (stereo not drawn)
    13.6	10.8
> O=C(Nc1ccc(OC(F)(F)F)cc1)N1CCc2nc(NCc3cccc(Oc4ccccc4)c3)ncc2C1
    -0.2	-5.0
> COc1ccc(C(C)NC(=O)c2ccc(-n3ccc(C)n3)nc2)cc1OC (stereo not drawn)
    -10.0	-11.0
> O=C(CNC(=O)c1ccccc1)NCC(=O)N1CCOC(COc2cccc(C(F)(F)F)c2)C1 (stereo not drawn)
    -1.8	-6.2
> CCN1CC(CNC(=O)c2coc(COc3ccc(F)cc3)n2)CC1=O (stereo not drawn)
    3.2	-2.1
> Cn1ccc(NC(=O)CNC(=O)c2ccccc2I)n1
    -1.7	-3.6
> O=S(=O)(c1ccccc1)N(Cc1ccco1)c1ccccn1
    13.0	11.3
> CN(C)CCN(C)C(=O)CC1(C)N=C(c2ccc(N(C)C)cc2)N(C)O1 (stereo not drawn)
    8.0	2.9
> CN(Cc1ccc(F)cc1F)C(=O)CN1CCCCCCC1=O
    10.1	5.7
> CCN(CC(O)COCC(C)C)CC1CC(c2ccc(Cl)cc2)=NO1 (stereo not drawn)
    9.6	8.2
> COCCC(=O)N1c2ccccc2OCC1C (stereo not drawn)
    11.5	4.9
> Cc1cnn(CC2CCCN2C(=O)c2cc(Cl)c(Cl)n2C)c1 (stereo not drawn)
    4.7	4.1
> CNS(=O)(=O)c1ccc(SCCO)c([N+](=O)[O-])c1
    -2.4	-3.8
> O=C(O)C1(O)CCN(c2nccc(C3CCCC3)n2)CC1
    5.0	3.4
> CC(=O)c1ccc(NC(=O)CN2CCCc3c(C(=O)NC(C)C)cccc32)cc1
    0.0	-1.9
> CCC(C)(C)NC(=O)CN1CCC2(CC1)c1ccccc1[C@@H](OC)[C@@H]2O
    5.1	3.2
> CCCCN(Cc1cccn1Cc1cccc(C)c1)C(=O)CN(CCC)C(=O)c1cccs1
    -2.4	1.5
> CSc1ncnc2c1sc1nc3c(cc12)COC(C)(C)C3
    8.4	1.7
> CC1(C)O[C@@H]2C[C@@](OCc3cccc(C(F)(F)F)c3)(C(=O)NN3CCOCC3)CC(OCc3cccc(Cl)c3)[C@@H]2O1 (stereo partly drawn)
    6.1	9.5
> CCC(C)C(NC(N)=O)C(=O)O (stereo not drawn)
    1.1	-2.2
> N#CC1C(=N)Oc2cc(N)ccc2C1C1CC=CCC1 (stereo not drawn)
    6.8	5.3
> Cc1nn(CC(C)C)c(C)c1CC(=O)OC(C)C(=O)Nc1ccccc1F (stereo not drawn)
    -3.7	-5.1
> Cc1ccccc1NP(=O)(Nc1ccccc1C)Nc1ccccc1C
    -5.6	-9.7
> CN(C)CCCn1c2c(c(SCC(=O)Nc3ccccc3C(F)(F)F)nc1=O)CCCC2
    4.4	11.5
> Cc1ccccc1OCC(=O)N=Nc1c(O)n(C)c2c(C)cc(Br)cc12
    3.5	-1.9
> COc1ccc(N2CCCN(c3snc(Cl)c3C#N)CC2)cc1
    -7.4	-6.7
> CN(C)S(=O)(=O)c1ccc(Cl)c(C(=O)N2Cc3cc4c(cc3C3(CCCC3)C2)OCCO4)c1
    19.3	23.0
> Fc1ccccc1Nc1nc(-c2cccs2)nc2cc(Cl)ccc12
    32.1	35.6
> CCN1CCN(c2c(CN(CCCOC)C(=O)Nc3ccc(OC)cc3)c(C)nn2-c2ccccc2)CC1
    4.6	10.8
> COC(=O)c1ccccc1N(C)C(=O)c1cccc(Cl)c1
    2.9	4.2
> CC1c2cccn2CCN1S(=O)(=O)c1cc(Br)ccc1Br (stereo not drawn)
    4.2	6.7
> COc1ccc(C(=O)Nc2cccc(-c3nc4ccccc4o3)c2)cc1OC
    -1.9	-3.2
> COc1ccc(-c2csc(N/N=C\c3ccccc3)n2)cc1OC
    -1.6	-0.5
> CCOC(=O)C(C)(N)Cc1ccc(O)c(O)c1 (stereo not drawn)
    0.5	-5.9
> CN(Cc1cc(C(C)(C)C)n[nH]1)Cc1cn[nH]c1-c1ccc(F)cc1
    -5.3	-9.9
> CCOC(=O)NC(C(=O)NC1CCCC(C)C1)C(C)C (stereo not drawn)
    2.7	0.1
> O=C(O)C1CCC(c2ccccc2)N(Cc2ccc(F)cc2F)C1 (stereo not drawn)
    25.5	15.5
> N#CC(=CC=Cc1ccc([N+](=O)[O-])o1)c1nc2ccccc2[nH]1
    -1.2	-1.9
> CCOc1ccc(-c2ccc(SCCN3CCCCC3)nn2)cc1
    11.6	4.7

Compounds above that have a thiophene ring, fused or not:
Second line of a record – NPYLR7 ag	NPYLR7 ag max-min
> O=S1(=O)CCN2C=Nc3sc4c(c3C2=N1)CCCC4
    -0.4	-2.5
> Cc1ccc(C2c3c(n[nH]c3C(C)(C)C)OC(=N)C2C#N)s1 (stereo not drawn)
    25.1	16.4
> CCOC(=O)c1c(C)[nH]c(C(=O)COC(=O)c2ccc(C)s2)c1C
    -3.6	-6.6
> CCCCN(Cc1cccn1Cc1cccc(C)c1)C(=O)CN(CCC)C(=O)c1cccs1
    -2.4	1.5
> CSc1ncnc2c1sc1nc3c(cc12)COC(C)(C)C3
    8.4	1.7
> Fc1ccccc1Nc1nc(-c2cccs2)nc2cc(Cl)ccc12
    32.1	35.6

(cont.)
Second line of a record – NPYLR7 ag	NPYLR7 ag max-min
> CC1Cc2cc(S(=O)(=O)Nc3ccc(C#N)cn3)ccc2O1 (stereo not drawn)
    -5.4&-0.7	-5.3&-0.8
> CC1(C(=O)Nc2ccc3c(c2)OCO3)CCN1Cc1ccc2ccccc2c1 (stereo not drawn)
    6.6	0.2
> CCC(C)N(Cc1cccc(OS(C)(=O)=O)c1)C(=O)Nc1ccc(OC)cc1 (stereo not drawn)
    -2.8	9.0
> CCc1cccc(CC)c1NC(=O)N(C)Cc1ccc(SC)cc1
    -2.3	-3.7
> Cc1ccc(-c2nc(N(C)Cc3nccn3C)ncc2-c2ccc(N)nc2)cc1
    14.2	-3.6
> Cc1cc(C)cc(C(=O)Nc2nn(C(C)(C)C)cc2C#N)c1
    -0.2	-1.6
> CC(NC(=O)CSc1cc(F)ccc1F)c1cc2ccccc2o1 (stereo not drawn)
    2.2	1.1
> COc1cc2c(cc1CN(C)C(C)C(=O)N(C)C)OCCCO2 (stereo not drawn)
    17.5&9.1	8.9&-7.6
> COc1ncccc1C(=O)N1CCc2nnc(CCc3ccccc3)n2CC1
    -6.6	-16.1
> Cc1ccsc1C1(C(=O)N2C[C@H]3C[C@H](O)[C@@H](O)C[C@H]3C2)CC1(C)C (stereo partly drawn)
    -2.8	-2.3
> O=C(Nc1ccccc1C(=O)NC1CC1)c1cc(Cl)ccc1F
    6.2	5.7
> Cc1ccc(C2=NN3SC=C(c4ccc(F)cc4)N=C3C(O)(C(F)(F)F)C2)cc1 (stereo not drawn)
    -2.1	-3.1
> O=C(NC1CCN(c2ccccc2C(=O)N2CCN(c3ccccn3)CC2)CC1)c1ccc(Br)cc1
    0.5	9.9
> C=CCN(CC=C)c1cc(Cl)nc(SCc2ccc(C(=O)N3CCN(c4ccccc4OC)CC3)cc2)n1
    2.9	19.2
> CNS(=O)(=O)CCNC(=O)C(C)Oc1cc(C)ccc1C (stereo not drawn)
    24.4	17.3
> CC(=O)C1=CNC(=O)N(C(C)=O)C1c1ccccc1 (stereo not drawn)
    4.7	2.3
> Cc1cc(C(=O)N(CCc2ccccc2)CC2CCCN(C)C2)nc(C)n1 (stereo not drawn)
    12.5	4.5
> c1ccc(CCc2nc(CCn3nnc(-c4ccccc4)n3)n[nH]2)cc1
    -0.9	0.2
> N/N=C1\CC(c2ccccc2)Cc2n[nH]c(=O)cc21 (stereo not drawn)
    -12.2	-20.7
> O=C1NCCN(Cc2cccc(Oc3ccccc3)c2)C1CC(=O)N1CCOCC1 (stereo not drawn)
    8.4	-5.6
> O=C(c1scc2c1OCCO2)N1CCOC(CCc2ccccc2)C1 (stereo not drawn)
    2.1	0.6
> O=C(O)c1c(OCc2cccnc2)nn2ccsc12
    23.5	8.0
> CCOC(=O)c1c(C)nn(-c2ccc(C(=O)N3CCC(C(=O)OCC)CC3)cc2)c1C
    6.0	5.5
> Cc1csc(/C=C/c2ccc(Br)cc2)n1
    -8.8	-12.4
> O=C(NCCC(c1ccccc1)c1ccccc1)c1ccc(CSc2nc(Cl)cc(N3CCN(c4cccc(C(F)(F)F)c4)CC3)n2)cc1
    17.0	16.0
> O=C(NCCc1ccc(Cl)cc1Cl)c1ccc(-c2ccc(F)c(F)c2)s1
    18.0	28.2
> O=C(O)c1cc2c(cc1O)CCCC2
    -3.0	-3.4
> CC(C)OCCS(=O)(=O)c1ncc(-c2ccccc2)n1C
    -0.7	-1.4
> CN(C)C(=O)C1CSCN1C(=O)c1cc2ccccc2s1 (stereo not drawn)
    3.3	0.7
> COc1ccc(OC(=O)N2N=Cc3sccc3B2O)cc1
    -7.2	-9.2
> CCNC(=O)N1CC2=CC(C)(C)COc3ccc(OC)c(c32)C1C(=O)NC (stereo not drawn)
    0.8	11.6
> CCS(=O)(=O)c1ncc(CN2CCN(c3cnccn3)CC2)n1Cc1ccccc1
    19.6	8.7
> c1cc(CNC2COc3ccccc3C2)cc(OC2CCCC2)c1 (stereo not drawn)
    5.9	4.2
> O=S(=O)(c1ccccc1)c1nnn2c1nc(N1CCOCC1)c1ccccc12
    5.1	6.1
> Cc1ccc(NC(=O)CSC2=NS(=O)(=O)c3ccccc3N2)cc1
    10.0	4.3
> COc1cccc(CN2CCCOc3c(cccc3OC)C2)c1O
    18.0	8.0

These rows are one share of the data; count on the stated rates, not on these rows.
